Screens deposited in PubChem by National Center for Advancing Translational Sciences (NCATS).
CtBP-E1A blk = CtBP/E1A binding inhibition; AlphaScreen GST-E1A/His-CtBP binding, 1536-well; active compounds read low; control for the full effect not named in the record; activity change, % (test concentration not listed); 0.49% of 340,000 active; AID 651724; in the data active means activity change below about -65%; inconclusive means about -30% to -65%; inactive means above about -30%; note: % is set by controls: 0 for no effect and ±100 for the full control effect
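In 5 uL wells, 23 nL compound meets equimolar GST-E1A and His-CtBP (5X stock 125 nM each) for 2 h, 37 °C. Beads (5X, 50 ug/mL) then 1 h, 37 °C, dark.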
D2 ag = human D2 receptor agonism in beta-arrestin assay; 0.084% of 360,000 active; activation, % (concentration not given with the values); DiscoveRx PathHunter D2 beta-arrestin, luminescence, 90 min; 100% = 57 uM dopamine signal; P14416; in the data active = activation above about 40%; inconclusive = about 15% to 40%; inactive = below about 15%; note: compound concentration not given in the record; the text of the record calls up to 30% inactive
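DiscoveRx PathHunter D2 beta-arrestin cells (2,100/well) attached overnight, then compound-stimulated 90 min at 37 C in HBSS/10 mM HEPES/0.1% Tween-20 buffer; beta-galactosidase complementation read by luminescence after 1 h at ambient temperature. Dopamine 57 uM final (EC100) as control.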
TRPML1 blocker = human mucolipin-1 channel inhibition; Q9GZU1; TRPML1-inducible cells, Ca2+ dye fluorescence, FDSS; active compounds read low; inhibition of EC80 agonist-evoked calcium signal; activity change, negative = inhibition, % (concentration not given with the values); 0.02% of 390,000 active; in the data active means activity change below about -50%; inconclusive means about -30% to -50%; inactive means above about -30%;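 note: stimulus is agonist 54-4 at its EC80 concentration; % is set by controls: 0 for no effect and ±100 for the full control effect; the text of the record puts the active cut at -80%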
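Calcium fluorescence in TRPML1-DL cells induced overnight with Tet: a 110 s read after compound pin addition, then a 110 s antagonist read after challenge with 54-4 at 4 uM final (EC80).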
PINK1 modulator = PINK1 expression modulation; AID 624263; Potency, µM (doses to about 76.6 µM), for the others: top-dose activation (PINK1 increase), usual class: activators; 0.2% of 410,000 active; PINK1 immunofluorescence, high-content cytometry, 24 h; active = well fitted activation curve with a large enough effect; inconclusive = small, poorly fitted or top-dose-only effect; inactive = flat fitted curve, though single readings scatter; cell line not stated here;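 note: potency is the fitted concentration of half-maximal effect; % of control where 0% means no effect; nearly all actives have a fitted effect of over 65% in size; a mitochondrial uncoupler was the plate control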
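Decision-based qHTS: stable cells, 24 h exposure to five compound concentrations, CCCP as control. Fixed cells stained for PINK1 plus nuclear, mitochondrial and cell markers, cytometer read.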
TRPML1 ag = activates the human TRPML1 channel. Q9GZU1. TRPML1-expressing cells, Ca2+ dye fluorescence, FDSS; host cell line not named in the record; reference of the full effect not given here. activation, % (test concentration not listed). 0.12% of 410,000 active. AID 624414; in the data active = activation above about 50%; inconclusive = about 30% to 50%; inactive = below about 30%; note: 0% is about no effect; the text of the record puts the active cut at 80%
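Agonist activity was taken from a 110 s kinetic Ca2+ dye read on the FDSS after pinning compounds onto TRPML1-DL cells. The cells were seeded at 1,500/well with Tet inducer, incubated about 16 h, then dye-loaded at room temperature.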
Six1-Eya2 blk = blocks human Six1 binding to Eya2. activity change, % (test concentration not listed). AlphaScreen GST-Six1/His-Eya2 binding, biochemical; active compounds read low; control for the full effect not named in the record. Q15475+O00167. 0.56% of 360,000 active; in the data active = activity change below about -65%; inconclusive = about -30% to -65%; inactive = above about -30%; note: % is set by controls: 0 for no effect and ±100 for the full control effect
Target sequence (O00167 whole entry, looked up): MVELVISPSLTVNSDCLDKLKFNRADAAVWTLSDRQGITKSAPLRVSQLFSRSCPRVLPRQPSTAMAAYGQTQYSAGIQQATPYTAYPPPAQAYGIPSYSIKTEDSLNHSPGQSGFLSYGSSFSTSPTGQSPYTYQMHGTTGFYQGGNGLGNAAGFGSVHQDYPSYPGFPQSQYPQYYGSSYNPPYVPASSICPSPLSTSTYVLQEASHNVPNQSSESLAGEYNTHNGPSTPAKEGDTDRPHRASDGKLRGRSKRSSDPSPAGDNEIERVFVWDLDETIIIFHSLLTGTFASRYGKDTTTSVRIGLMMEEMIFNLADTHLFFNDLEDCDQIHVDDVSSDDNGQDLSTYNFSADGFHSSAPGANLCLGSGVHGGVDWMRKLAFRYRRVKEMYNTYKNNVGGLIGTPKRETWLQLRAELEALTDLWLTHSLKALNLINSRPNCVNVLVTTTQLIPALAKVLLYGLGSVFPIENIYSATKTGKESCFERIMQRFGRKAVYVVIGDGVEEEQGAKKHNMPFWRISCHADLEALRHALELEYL
Target sequence (Q15475 whole entry, looked up): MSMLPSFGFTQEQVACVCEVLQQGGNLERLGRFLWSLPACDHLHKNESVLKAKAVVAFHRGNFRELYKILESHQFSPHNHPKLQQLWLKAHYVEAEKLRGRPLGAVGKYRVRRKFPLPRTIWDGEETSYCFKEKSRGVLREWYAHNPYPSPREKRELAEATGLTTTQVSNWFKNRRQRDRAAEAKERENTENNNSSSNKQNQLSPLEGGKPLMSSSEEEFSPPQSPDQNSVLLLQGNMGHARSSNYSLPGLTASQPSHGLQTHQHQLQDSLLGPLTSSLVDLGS
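GST-Six1 + His-Eya2 (5X stock: 250/500 nM); Tris pH 8.0, 300 mM NaCl, 0.05% BSA, 0.02% Tween 20; GSH donor/Ni acceptor beads; 1 h 37 °C dark; AlphaScreen readout.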
Starred values were filed as active, the others as inactive; ? = inconclusive; . = no result given; & = joins results of further samples; [ ] = another dose, or the depositor's remark.

SMILES	CtBP-E1A blk	D2 ag	TRPML1 ag	PINK1 modulator	Six1-Eya2 blk	TRPML1 blocker
O=C1C2C3C=CC(c4ccccc4)(C2C(=O)N1c1cccc(Cl)c1)C1C(=O)N(c2cccc(Cl)c2)C(=O)C31 (stereo not drawn)	-11	-0.1	0.3	0.6%	5	5
NC(=O)CCSC(=S)N1CCOCC1	.	-2.2	0.1	0.2%	-1	-8
Cc1noc(C)c1COc1ccccc1C(=O)NC(C)c1ccc(F)cc1 (stereo not drawn)	-1	-3.8	1.0	-1.4%	6	5
COc1cnc(SCc2ccc(Cl)cc2Cl)nc1Cl	52	-7.3	4.9	2.3%[38.3 µM]	42	31
Cc1ccc([N+](=O)[O-])c2c1C(N1CCCCC1)C(C)(C)O2 (stereo not drawn)	-2	8.5	6.9	4.2%	0	-5
O=S(=O)(Nc1cccc2cccnc12)c1ccccc1	-84*	-8.8	8.1&1.8	5.6%&0.7%	-66*	12&-7
Cc1cc(=O)c2ccccc2n1Cc1ccccc1	3	-3.9	0.5	-0.5%	7	-11
CCc1nc(SCC(=O)NCc2ccco2)c2c(=O)n(C)c(=O)n(C)c2n1	0	-4.1	0.0	2.6%	-7	2
CC1(C)CC2(C)OC2C2(C1)N=NC(=Nc1ccccc1)O2 (stereo not drawn)	0	-5.8	-0.3	0.1%	6	.
Cc1nnc(NS(=O)(=O)c2ccc(N=Nc3ccc(N)nc3N)cc2)s1	?	-4.4	0.9	0.7%	?	-6
CSc1nsc(/C=C/Nc2ccc(C)cc2)c1C#N	4	-1.0	-0.5	15%	-1	-16
CCOc1ccc(NC(=O)c2c(NC(=O)c3ccccc3Br)sc3c2CCC(C)C3)cc1 (stereo not drawn)	.	.	0.8	1.1%	.	11
N/C(=N\OS(=O)(=O)c1ccc(Cl)cc1)c1ccncc1	3	?	-0.4	0.7%[38.3 µM]	0	-7
CCn1nc(C)c(Br)c1-c1nc(CS(=O)(=O)c2ccsc2)no1	.	-3.9	-0.2	0.4%	5	8
CCCCCCCCN1C(=O)[C@H](CC(=O)N2CCSCC2)C[C@@]2(C(=O)OCC)CCCC=C12	-25	.	0.0	5.8%	1	.
O=C(NNC(=O)c1cc2ccccc2cc1O)Nc1ccc(Br)cc1	4	1.0	-0.5	3.2%	-10	-6
CCOc1ccccc1NC(=O)c1ccc2c(Cl)c3c(nc2c1)CCC3	.	.	-0.8	3.7%	.	-3
Cc1ccc(/C=N/NC(=O)CN2C(=O)CSc3ccccc32)o1	0	-4.7	0.0	-1.8%	1	-6
CCOc1cc(/C=C2\SC(N3CCCCC3)=NC2=O)ccc1O	-10	-1.6	5.4	-1.1%	-3	10
Cc1ccc(C)c(Nc2ncnc3nc[nH]c23)c1	0	-4.6	-0.8	-1.2%	7	-3
CC(=O)c1ccc(NC(=O)c2ccc(S(=O)(=O)N3CCCC3)cc2)cc1	13	-6.1	-0.1	0.9%	-8	4
O=C(/C=C/Nc1ccc(F)c(F)c1)c1cccs1	-11	-1.0	-0.1	8.9%	2	3
CCOC(=O)c1oc2ccccc2c1COC(=O)C(C)NC(=O)c1ccco1 (stereo not drawn)	.	2.0	1.0	0.7%	-1	-2
Cc1c(C(=O)NC2CCCCC2)sc2ncnc(N3CCN(c4ccccc4)CC3)c12	2	-7.1	-0.5	3.2%	3	-1
CC(=O)c1ccc(N2CCN(C(=O)Nc3ccc(F)cc3F)CC2)cc1	-3	-5.0	-1.1	-0.8%	0	0
O=C(CSc1ccccc1)N1CCc2c([nH]c3ccccc23)C1c1ccc(Cl)cc1 (stereo not drawn)	.	.	-0.1	0.2%	.	-13
CN(C)CCN(Cc1cccs1)S(=O)(=O)c1csc(C(N)=O)c1	-13	-0.1	-0.4	1.2%	-2	-3
C#C[C@]1(O)CCC2C3CCC4=Cc5oncc5CC4(C)C3CCC21C (stereo partly drawn)	3	0.1	1.4	1.6%	-7	18
COC(=O)c1c(C)nc(C)c(C(=O)OC)c1-c1ccc(OC)cc1	-3	3.3	-0.3	-0.4%	1	1
COC(=O)c1ccccc1NC(=O)C(=O)NCC1CCCO1 (stereo not drawn)	-1	-2.0	0.0	0.5%	-6	0
O=C(NCCCN1CCCC1=O)c1cccc(C(F)(F)F)c1	5	2.4	0.6	2.2%[38.3 µM]	3	0
CCOC(=O)C1CCCN(S(=O)(=O)CCNC(=O)c2ccccc2)C1 (stereo not drawn)	-21	1.0	-0.6	-0.1%	8	40
CCCNC(=O)C1(C)CCN(C(=O)Cc2ccc3ccccc3c2)C1 (stereo not drawn)	5	-5.3	-1.1	2.4%	9	.
Cc1ccc(S(=O)(=O)N2CCCOC2CNC(=O)C(=O)NCc2cccnc2)cc1 (stereo not drawn)	5	0.2	0.0	2.0%	0	2
COc1cccc(N2CCN(C(=S)NCc3ccco3)CC2)c1	-17	3.2	0.8	0.3%	-3	-13
O=C(/C=C/c1ccc(Cl)c(C(F)(F)F)c1)N1CCN(c2ccccn2)CC1	0	-2.0	0.6	1.3%	5	14
Cc1ccc(N2CCN(c3ccc(NC(=O)CCC(=O)O)cc3)CC2)cc1	0	1.7	0.2	1.9%	1	7
CCCC(C(=O)Nc1nccs1)c1ccccc1 (stereo not drawn)	-5	-3.0	-0.2	5.0%	-3	35
COc1nccc(C(F)(F)F)c1C(=O)Nc1ccc(Cl)cc1	8	-4.8	0.7	1.3%	-1	2
COCCn1cc(C(=O)NCCN(C)C)c2c3ccccc3n(C)c2c1=O	.	2.6	1.2	-0.7%	2	-18

Compound profiles (already shown).
COc1nccc(C(F)(F)F)c1C(=O)Nc1ccc(Cl)cc1 is entered as CtBP-E1A blk: 8; D2 ag: -4.8; TRPML1 ag: 0.7; PINK1 modulator: 1.3%; Six1-Eya2 blk: -1; TRPML1 blocker: 2
COC(=O)c1c(C)nc(C)c(C(=O)OC)c1-c1ccc(OC)cc1 is entered as CtBP-E1A blk: -3; D2 ag: 3.3; TRPML1 ag: -0.3; PINK1 modulator: -0.4%; Six1-Eya2 blk: 1; TRPML1 blocker: 1

Later entries.
SMILES	CtBP-E1A blk	D2 ag	TRPML1 ag	PINK1 modulator	Six1-Eya2 blk	TRPML1 blocker
COC(=O)c1ccc(NC(=O)CSc2nccn2CCc2ccccc2)cc1	-17	-2.8	-0.9	4.4%	-26	76
CC(=O)Cn1c(CN2CCCC2)nc2ccccc2c1=O	-16	-4.8	-0.2	0.0%	20	9
CC(=O)c1ccc(S(=O)(=O)N2CCN(CC(=O)Nc3ccc(Cl)c([N+](=O)[O-])c3)CC2)cc1	-10	4.3	0.3	-0.6%	-7	1
O=C(O)c1cc(N2CCCC2)ccn1	6	-5.8	-0.1	1.8%	-16	-1
Cc1cc(C)c(OCC(=O)N2CC=C(c3ccccc3)CC2)c(C)c1	19	1.1	-0.1	0.3%	1	-6
N#CC1c2ccccc2C=CN1C(=O)N(c1ccccc1)c1ccccc1 (stereo not drawn)	3	-1.6	0.5	-2.0%	-4	-1
Cc1ccc(-n2nnnc2SCC(=O)NCC2(N3CCCCC3)CCCCC2)c(C)c1	-7	4.9	0.4	-1.8%	-1	5
O=C(N[C@H]1C/C=C\C[C@H](CC(=O)N(CCO)Cc2ccccc2)C(=O)N[C@@H](c2ccccc2)COC1=O)OCC1c2ccccc2-c2ccccc21	-16	-5.2	0.6	0.9%	10	-3
CC(=O)c1cc(Cc2csc(C(C)=O)c2)cs1	6	0.0	0.2	-0.3%[38.3 µM]	3	-10
Cc1onc(-c2ccccc2)c1C(=O)OCCOc1ccccc1F	49	0.2	0.0	-0.8%	37	7
COc1ccc(CCNc2oc(Cc3cccc4ccccc34)nc2C#N)cc1OC	-7	8.0	0.5	-0.6%	-29	15
Fc1cccc(Cc2noc(CN3CCCN(C4Cc5ccccc5C4)CC3)n2)c1	-12	-3.0	-0.4	2.2%	-18	13
Cc1cccc(NS(=O)(=O)c2ccc(OCC(=O)N3CCCC3)cc2)c1	4	-3.0	-0.2	1.5%	-2	15
CCC(CO)NCc1ccc(Br)cc1 (stereo not drawn)	2	0.4	0.8	0.4%	-3	-12
CC1(C(=O)NCCC#N)CCN1C(=O)CC(c1ccccc1)c1ccccc1 (stereo not drawn)	-2	-1.3	-0.8	1.1%	1	.
COCCNC(=O)CSc1c2c(nc3ccc(Cl)cc13)CCCC2	.	6.2	1.0	-1.8%	-6	13
CN(C)c1ccc2c(=O)cc[nH]c2c1	-2	4.8	-0.4	1.0%	-5	.
CCOc1ccc(-c2cc(-c3nc(-c4ccc(C)cc4)no3)[nH]n2)cc1	.	.	1.0	1.8%	.	46
CNC(=O)Cn1c(=O)c2cccn2c2ccc(F)cc21	.	.	0.5	-0.9%	.	4
COC(=O)C1=CO[C@@H](O[C@@H]2O[C@H](CO)[C@@H](O)[C@H](O)[C@H]2O)[C@H]2[C@@H]1C(=O)C[C@@H]2C	2	-4.0	-0.4	3.7%	6	16
CC(C)[C@@H]1Cc2[nH][nH]c(=O)c2[C@H](C(C)C)O1	5	.	-0.8	-0.2%	1	.
CCCOCC1CC2(SC(=Nc3ccc(C)cc3)NC2=O)C(=O)O1 (stereo not drawn)	-1	-2.0	-1.2	-1.4%	-1	17
Cc1cc(C)c(C(=O)CC2(O)C(=O)Nc3ccccc32)cc1C (stereo not drawn)	1	-0.3	0.7	-1.7%	2	55
Cc1cc(F)ccc1S(=O)(=O)Nc1ccccc1C(=O)NCc1ccccn1	0	-1.6	-0.4	1.2%	14	0
CCCN(CC(=O)Nc1ccccc1C)C(=O)c1ccc(S(=O)(=O)N2CCCCCC2)cc1	2	1.0	0.2	-0.1%	-5	-17
CC(C)c1ccc(-c2csc3nc[nH]c(=O)c23)cc1	.	-3.8	.	1.2%	2	.
